# Compound activity as filed in PubChem.
# MgrA-DNA mod: S. aureus MgrA activity modulators, primary screen, biochemical, S. aureus Newman, fluorescence polarization. AID 602314, 2012. MgrA-DNA binding. hit rate 0.13% among 84,000. inhibition, %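 (about 10 µg/mL by stock and volumes)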;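 active means above 50% in either of two replicates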;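 further: 0% = protein plus DNA without compound and 100% = DNA alone without protein; higher means less MgrA bound to DNA so lower polarization; one replicate is shown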
# S aureus helic: inhibitors of S. aureus replicative helicase, primary screen, biochemical, fluorescence unwinding readout. inhibition, %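 (tested at about 80 µM)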. replicative DNA helicase (DnaC/DnaB), Staphylococcus aureus. hit rate 0.05% among 120,000. purified S. aureus helicase, fluorescence unwinding assay; about half of the hits fall short of the stated cut;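 active means both duplicates at 50% or more, or one of them with a favoured structure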;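 further: 0% = mean of negative control wells and 100% = mean of positive control wells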
# Numbers without * were called inactive; . = no result given.
# Start of the listing, in advance, three compounds:
# Screens in order: S aureus helic	MgrA-DNA mod
> CCOC(=O)C1=C(c2ccccc2)Nc2nnnn2C1c1ccc(Br)cc1 (centres undefined)
    9	2.0
> S=c1[nH]nc(C23CC4CC(CC(C4)C2)C3)o1
    -7	.
> O=C(CC1(O)C(=O)N(CCc2ccccc2)c2ccc(Br)cc21)c1ccco1 (centres undefined)
    -14	.

# The whole of this part, repeating the preview:
# Screens in order: S aureus helic	MgrA-DNA mod
> CCOC(=O)C1=C(c2ccccc2)Nc2nnnn2C1c1ccc(Br)cc1 (centres undefined)
    9	2.0
> S=c1[nH]nc(C23CC4CC(CC(C4)C2)C3)o1
    -7	.
> O=C(CC1(O)C(=O)N(CCc2ccccc2)c2ccc(Br)cc21)c1ccco1 (centres undefined)
    -14	.
> [O-][N+]12CC[N+]([O-])(CC1)c1ccccc12
    -1	.
> CNC(=O)NC(=O)CSc1ccc(NC(C)=O)cc1
    2	.
> CCOC(=O)C1CCN(c2ncnc3c2cnn3C)CC1
    6	.
> CCN=C1S/C(=C/c2cn(CC(=O)Nc3ccccc3)c3ccccc23)C(=O)N1CC
    9	-1.2
> Cc1cc2nnc(C(=O)/C=C/N(C)C)c(C)n2n1
    28	.
> O=C(Nc1ccccc1C(=O)O)OCC1c2ccccc2-c2ccccc21
    .	7.0
> CN(Cc1ccccc1)C(=O)c1noc2c1COc1ccccc1-2
    11	3.6
> CNCC12CC3CC(CC(C3)C1)C2
    -10	-0.1
> Cc1sc2ncnc(NCc3ccccn3)c2c1C
    -14	.
> CCOc1ccc(C(=O)CCC(=O)N2CCNC(=O)C2)cc1
    -14	.
> CC1(CCc2ccccc2)NC(=O)N(NC(=O)COc2ccc(C#N)cc2)C1=O (centres undefined)
    0	.
> CCN(C(=O)Cn1ncc2c1-c1ccccc1OC2)c1ccccc1
    13	.
> CC(C)(C)NC(=O)c1ccc2c(c1)C(=O)N(Cc1ccco1)C2=O
    25	2.5
> Cc1ccccc1C(=O)Nc1ccc(-c2ccc3nncn3n2)cc1
    7	.
> CCN1C(=O)c2ccccc2S(=O)c2ccc(C(=O)NCCC3=CCCCC3)cc21 (centres undefined)
    22	.
> COc1ccc(-n2c(O)c(C=NCC(C)(C)N3CCOCC3)c3ccccc3c2=O)cc1OC
    14	.
> Cn1cccc1C(=O)OCC(=O)c1ccc(Br)cc1
    -3	.
> Cn1c(SCc2ccccc2)nc2ccccc21
    -14	0.0
> O=S(=O)(Cc1ccccc1)N1CCCc2ccccc21
    10	.
> COc1ccccc1N=Nc1[nH]c2ccc(C)cc2c1O
    -3	.
> O=C(NCCc1ccccc1)C1CC(=O)N(C2CCCC2)C1 (centres undefined)
    -8	-3.6
> c1nnc(NC2=NCCCCC2)s1
    4	.
> O=C(CSc1nc(-c2ccccc2)ns1)N1CCN(c2ccccc2)CC1
    .	-0.4
> COc1ccc(C(=O)Nc2ccc(N3CCCCC3)cc2)cc1
    -13	.
> O=C(CSc1nn2cnnc2s1)N1CCCC1
    4	0.6
> CCOC(=O)c1sc(Nc2ccccc2C(F)(F)F)c(C(=O)OCC)c1N
    .	3.3
> COc1ccc2oc(-c3ccco3)cc(=O)c2c1
    3	1.7
> Cc1cc(C)c2cc3c(ccn3C3OC[C@H](O)[C@H](O)[C@H]3O)cc2n1 (some centres undefined)
    -31	.
> O=C(Nc1ccccc1C(F)(F)F)c1cccs1
    24	-0.7
> CCN1CCCC1CNC(=O)c1ccccc1Cl (centres undefined)
    13	-2.5
> CCC(=O)Nc1nc2c(C)c(C)ccc2s1
    2	.
> Cn1c(-c2ccc(Br)cc2)cnc1SCC(=O)N1CCNC1=O
    4	.
> CCOc1ccc(NC2=NC3CS(=O)(=O)CC3S2)cc1 (centres undefined)
    7	.
> Cc1ccc(C)c(N2CCN(C3CCCCCCC3)CC2)c1
    -2	-0.8
> Cc1cc(NC(=O)COC(=O)c2ccccn2)ccc1Cl
    2	-4.2
> CCOC(=O)CC1C(=O)NCCN1C(=O)c1ccccc1 (centres undefined)
    .	1.2
> O=C(CNc1ccccc1)Nc1ccccc1
    -1	-12

# Complete entries as entered above. Order of screens: S aureus helic | MgrA-DNA mod
# `Cn1c(SCc2ccccc2)nc2ccccc21` is entered as -14 | 0.0
# `CCN1CCCC1CNC(=O)c1ccccc1Cl` (centres undefined) is entered as 13 | -2.5
# `O=C(CSc1nn2cnnc2s1)N1CCCC1` is entered as 4 | 0.6
# `CCOC(=O)c1sc(Nc2ccccc2C(F)(F)F)c(C(=O)OCC)c1N` is entered as . | 3.3
# `Cc1cc(C)c2cc3c(ccn3C3OC[C@H](O)[C@H](O)[C@H]3O)cc2n1` (some centres undefined) is entered as -31 | .

# Three structures out of the list, arranged by heavy-atom count, descending:
# Screens in order: S aureus helic	MgrA-DNA mod
> O=C(NCCc1ccccc1)C1CC(=O)N(C2CCCC2)C1 (centres undefined)
    -8	-3.6
> O=C(CSc1nn2cnnc2s1)N1CCCC1
    4	0.6
> c1nnc(NC2=NCCCCC2)s1
    4	.

# Going on with the list:
# Screens in order: S aureus helic	MgrA-DNA mod
> CCC(=O)Nc1nc(-c2ccccn2)cs1
    21	.
> CC(=O)Oc1ccc(-c2ccc(C(=O)O)cc2)cc1
    -19	0.4
> COc1ccc(Cl)cc1NC(=O)C(OC)c1ccccc1 (centres undefined)
    4	0.7
> COc1cccc(Nc2cc(C)nc3ccccc23)c1
    17	4.2
> CC(C)Cn1ncc(=O)n(CC(C)C)c1=O
    3	1.9
> CSc1cc(-c2ccc(F)cc2)nn1S(=O)(=O)c1ccc(C)cc1
    .	-0.1
> FC(F)(F)c1nc(NCc2ccco2)nc2c1CCCCC2
    36	.
> CC(=O)Nc1ccc(Br)c(C(F)(F)F)c1
    .	-0.9
> O=C(Cn1cc(Br)ccc1=O)c1ccc2c(c1)OCCO2
    -20	.
> N#CCc1nc2ccc(F)cc2c(=O)[nH]1
    -20	1.6
> COc1ccc(N2CC(c3ccc(F)cc3)=CC2=O)cc1
    .	0.8
> CSc1ncc(C(=O)O)c(-c2ccccc2)n1
    0	-2.8
> CCN1C(=O)c2ccc(C(=O)c3ccc(C(=O)O)cc3)cc2C1=O
    -12	.
> O=C(O)CNC(=O)/C=C/c1cccc(C(F)(F)F)c1
    10	-3.7
> CCc1nn(CCCC(=O)N(C)Cc2ccccc2)c(=O)c2cc3occc3n12
    5	-0.6
> CCOc1ncccc1C(=O)N1CCSC1=NCCc1ccccc1
    2	.
> O=C(c1ccncc1)c1nccn1-c1ccccn1
    4	-3.0
> N#CCCN(Cc1ccccc1)C(=O)Nc1ccc2c(c1)CCO2
    25	.
> CC(Nc1ccccc1)C(=O)O (centres undefined)
    11	.
> COc1ccc(-n2nc(C(=O)NCC(=O)N3CCCCC3)c3ccccc3c2=O)cc1
    14	.
> CCC(=O)Nc1cc2c(C)cc(=O)oc2cc1C
    12	0.1
> N#Cc1ccc(C(=S)N2CCOCC2)cc1
    .	2.7
> O=C1C2C3C=CC(C3)C2C(=O)N1c1ccncc1 (centres undefined)
    11	.
> COc1nc(N(C)C)nc(N(CN2C(=O)c3ccccc3C2=O)S(=O)(=O)c2ccc(C)cc2)n1
    12	1.0
> COc1ccc(N2CCN(C(=O)COC(=O)C3CC4CCCC(C3)C4=O)CC2)cc1 (centres undefined)
    12	.
> CCN1C(=O)/C(=C/c2ccccc2)N(C)C1=S
    18	6.1
> Cc1cccc(NC(=O)CC23CC4CC(C2)CC(n2nnc(C)n2)(C4)C3)c1
    44	.
> COC(=O)C1=C(NC(=O)c2ccco2)CCS1
    15	.
> O=C(NCC(=O)N1CCN(S(=O)(=O)/C=C/c2ccccc2)CC1)c1ccccc1F
    18	.
> O=S(=O)(c1ccccc1F)N(Cc1ccco1)Cc1nnc(-c2ccc(Cl)cc2)o1
    1	.
> CC(=O)N1CC2(NC(=O)c3ccccc3N2)c2ccccc21 (centres undefined)
    3	-0.3
> CC(=O)N(Cc1ccccc1)Cc1cc2ccc(C)cc2[nH]c1=O
    -3	-1.4
> COC(=O)c1ccc(-c2ccco2)n1CC(=O)N1CCC(Cc2ccccc2)CC1
    30	.
> CCOC(=O)CSC(=S)Nc1cc(C(F)(F)F)cc(C(F)(F)F)c1
    .	0.3
> COC(=O)c1sc2cc(OC)ccc2c1Cl
    -5	2.9
> CCN(CC)c1ccc(/C=C2/C(=O)NN(c3ccc(C)cc3)C2=O)cc1
    15	2.0
> CC(=O)Nc1ccc(SC(C)c2nc3ccccc3c(=O)[nH]2)cc1 (centres undefined)
    -10	.
> O=C(NCCc1ccncc1)c1cccs1
    .	-3.3
> COC(=O)c1ccccc1NC(=O)c1onc(C)c1Cl
    8	.
> O=C(O)CSc1nc(O)cc(=O)[nH]1
    8	.
> CCSCC(=O)N1CCN(c2nnc(-c3ccccc3)c3ccccc23)CC1
    23	-0.7
> CC(=O)Nc1c(C)cc(C)[nH]c1=O
    6	.
> O=C(COC(=O)Cn1cnc2ccccc21)NCC1CCCO1 (centres undefined)
    -17	.
> CCOC(=O)N/N=C/c1ccc2c(c1)OCO2
    .	-0.7
> OCCN(CCO)CC(O)Cn1c2ccc(Br)cc2c2cc(Br)ccc21 (centres undefined)
    -2	1.1
> Cc1nn(C)c(C)c1/C=C/C(=O)O
    3	.
> COc1cccc(OC)c1C(=O)NC(C)(C)CC(C)(C)C
    .	-1.6
> O=C(Nc1nnc(C2CC2)s1)c1sc2ccccc2c1Cl
    .	-1.2
> CCc1ccccc1N1C(=O)C2C3C=CC(CC3)C2C1=O (centres undefined)
    .	2.1
> CC1(C)CN=C(N(C(=O)Nc2cccc(Cl)c2)C2CCCCC2)S1
    -16	.
> COc1ccc(-c2noc(CSc3nnc(C)n3-c3ccc(Cl)cc3)n2)cc1
    -1	1.0
> COc1ccnc(N)c1C#N
    .	0.0
> CN(c1ccc(Br)cc1)S(=O)(=O)c1ccc2[nH]c(=O)c(=O)[nH]c2c1
    -3	.
> COC(=O)C1C(C)=CC(=O)CC1CC(C)C (centres undefined)
    -3	-0.2
> Cc1cccn2c(=O)c(/C=C3\SC(=S)N(Cc4ccccc4)C3=O)c(N3CCOCC3)nc12
    .	-1.4
> CSc1nc(SCC(=O)C(C)C)nc(N)c1C#N
    -1	1.1
> CCc1ccc(C2C(C#N)=C(N)Oc3cc4c(cc32)OCO4)cc1 (centres undefined)
    12	-0.9
> O=C1S/C(=C/c2ccccc2F)C(=O)N1CNc1ccccc1
    24	.
> COc1ccccc1-c1c(C)nn2c(NCC(OC)OC)cc(C)nc12
    11	0.1
> CCCn1c(NC)nc2c1c(=O)n(C)c(=O)n2C
    9	.

# Further records.
# Screens in order: S aureus helic	MgrA-DNA mod
> Cc1nn(C)c(C)c1CN(C)C(=O)c1cnn2c1NC(c1ccccc1)CC2C(F)(F)F (centres undefined)
    5	-5.5
> CCS(=O)(=O)Nc1cccc(C(=O)CC2(O)C(=O)Nc3ccc(Br)cc32)c1 (centres undefined)
    -7	.
> O=C1NC(=S)S/C1=C\c1ccc(-c2ccc(S(=O)(=O)N3CCOCC3)cc2)o1
    24	.
> O=C(c1ccco1)N1CCN(C(=O)c2ccc(CS(=O)c3ccc(Br)cc3)o2)CC1 (centres undefined)
    35	.
> C#CC(CCN1CCCCC1)(OC)c1ccccc1 (centres undefined)
    13	-2.6
> COC(=O)c1ccccc1NC(=O)Cn1ncc2c3ccccc3n(Cc3ccccc3)c2c1=O
    -18	.
> Cc1ccc(NC(=O)Cc2nc(CSc3nnc(-c4ccc5c(c4)OCO5)o3)cs2)cc1
    -9	.
> CCCNC(=O)Nc1cc(C)on1
    1	.
> CC1=C(C#N)C(c2cnc(C)[nH]2)C2=C(CCCC2=O)N1 (centres undefined)
    .	0.3
> c1ccc(-c2nnc(SCCC3OCCCO3)o2)cc1
    6	0.2
> COc1cccc(OC)c1OCCOc1ccccc1C
    5	0.5
> c1ccc(NC2=NCCCCC2)cc1
    1	.
> O=C(NCc1ccco1)c1ccc(COCC(F)(F)C(F)F)cc1
    -3	0.7
> O=c1c2ccccc2nc(-c2ccccc2)n1/N=C/c1ccccc1O
    -11	1.4
> CCOc1ccc(-n2ccnc2SCC(=O)Nc2ccc(Cl)cc2)cc1
    8	.
> CC1(c2ccccc2NC(=O)c2cccs2)CC1
    7	-1.9
> Cc1cc(-c2ccccc2)nc2cc(C(N)=O)nn12
    18	0.2
> N/C(=N\O)c1cccc(COc2ccc(Cl)cc2)c1
    .	1.0
> COc1cc(CCc2nnc(-c3cccs3)o2)cc(OC)c1OC
    .	-0.3
> CN(C)c1cc(C(F)(F)F)nc2cc(C(C)(C)C)nn12
    .	-2.4
> COc1ccc(C2N=C(c3ccc(Cl)cc3)SC(c3ccc(Cl)cc3)=N2)cc1OC
    .	0.0
> CC1CCN(C(=O)NC(C(F)(F)F)C(F)(F)F)CC1
    13	-1.5
> O=C1CCN(Cc2ccccc2)C(=O)N1
    5	0.8
> CCOC(=O)Cc1c(-c2ccccc2)c2cc(Cl)ccc2[nH]c1=O
    9	-1.0
> CCN(Cc1ccccc1)S(=O)(=O)c1c[nH]c(C(=O)OC)c1
    8	1.2
> CCN1C(=O)C(=Cc2ccc(N3CCOCC3)cc2OC)C(=O)N(CC)C1=S
    16	3.8
> CC(/C=N/n1c(COc2ccccc2)n[nH]c1=S)=C\c1ccco1
    20	8.1
> Cc1ccccc1COC(=O)CCC1=NS(=O)(=O)c2ccccc2N1
    2	.
> FC(F)(F)c1cnc(-c2cnc(-c3cccnc3)nc2)c(Cl)c1
    .	1.6
> CC(C)(C)C(=O)C(Cc1c(F)cccc1Cl)C(=O)C(C)(C)C
    .	1.5
> O=C(Nc1c(F)cccc1F)C(F)(F)F
    .	-1.2
> CCOC(=O)C1CCN(S(=O)(=O)c2ccc(N3C(=O)CC4(CCCC4)C3=O)c(Cl)c2)CC1
    .	0.3

# Some of the compounds tested; count on the stated rates, not on these rows.
